Tgondii IFNg: blocks Toxoplasma gondii growth in the presence of IFN-gamma | Toxoplasma gondii growth in IFN-gamma-treated host cells; active compounds read low; reference of the scale not given here | activity change, negative = inhibition, %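 (about 20 µM by stock and volumes)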 | hit rate 3.8% among 69,000;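 active means below -70%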;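 further: host cells are HeLa cells infected with Toxoplasma gondii; parasite growth read as luciferase light; one replicate is shown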
Numbers without * were called inactive; i = inactive; & = joins results of further samples. This is a subset, so the mix of outcomes need not match the whole.

SMILES | Tgondii IFNg
Cn1cccc1C(=O)N1CCC2(CC1)COCCN(c1ncccn1)C2 | -7
CC(C)C(=O)c1nc(-c2cn(C(C)C)cn2)n2ccccc12 | 39
CS(=O)(=O)N1CCCC12CCCN(C(=O)c1cnc[nH]1)C2 (stereo not drawn) | -9
O=C(c1cc(-n2cccc2)ccc1O)N1CCCC(Cn2ccnc2)C1 (stereo not drawn) | -4
O=C(O)C1(c2cccc(F)c2)CCOCC1 | -12
CC(NC(=O)CCN1CCN(c2ccccn2)CC1)c1ccc2c(c1)OCCO2 (stereo not drawn) | -39
CCN(CC)c1ncnc2c1cnn2CC(=O)Nc1ccccc1C | 25
COC(=O)C1SCCN1S(=O)(=O)c1ccc(-c2cc(C(F)(F)F)on2)s1 (stereo not drawn) | -52
CCCNC(=O)c1cc(-c2csc(C(C)C)n2)n2ccccc12 | -4
CCOc1cc(/C=C(/C#N)C(N)=O)cc(CSc2ccccc2)c1O | 24
CN1C(=O)c2cc(NC(=O)Nc3ccccc3F)ccc2OC[C@@H]2O[C@@H](CC(=O)NCCc3ccncc3)CC[C@H]21 | 3
COc1ccc(C(=O)Nc2nnc(C(c3ccccc3)c3ccccc3)s2)cn1 | 0
Cc1cccc(CC(=O)NCCc2csc(-c3ccc(F)cc3)n2)c1 | 60
CCN(Cc1ccccc1)C(=O)Cn1nc(C)c2sc(-c3ccccc3)nc2c1=O | -34
O=C(O)c1ccc(Oc2ncccn2)cc1 | 82
COC(=O)CSc1nc2ccccc2n1Cc1c(F)cccc1Cl | 6
O=C1N[C@@H](c2ccccc2)COCc2cn(nn2)CC[C@H]1Cc1ccc(C(F)(F)F)cc1 | -56
O=C(NCCc1c[nH]c2ccccc12)c1cn[nH]n1 | 1
CSc1nc(-c2cc(Cl)cc(Cl)c2)nn1C(=O)N(C)C | 24
CC(C)n1cnc2c(N3CCCC3)nc(C3CCN(Cc4ccco4)CC3)cc21 | -32
Fc1ccc(N2CCC3(CC2)CC(Oc2cccnc2)CO3)cc1 (stereo not drawn) | 169
CCCCN(C)C(=O)c1cc(-c2cnc(N3CCOCC3)nc2)cn1CC1CC1 | -67
Cc1cccn2cc(CNC(=O)CCC(=O)Nc3ccccc3C(C)(C)C)nc12 | -18
C[C@H](NC(=O)C[C@@H]1CC[C@H]2[C@@H](COc3ccc(NC(=O)C4CCOCC4)cc3C(=O)N2C)O1)c1ccccc1 | 3
C=CCN1C(=O)CC2(CCN(C(=O)c3cc(C)[nH]n3)CC2)c2ccccc21 | -8
FC(F)(F)CCc1ccnc(-c2ccc3c(c2)OCCO3)n1 | 11
Cc1ccc(NC(C)(C)C(=O)N[C@@H]2CC[C@@H](N)C2)cc1 | -2
COc1ccc(C(=O)Nc2ncc3c(n2)CC(C)CC3=O)cc1 (stereo not drawn) | 20
CC1CCN(S(=O)(=O)c2ccc3c(ccc(=O)n3CC(=O)Nc3ccc(Cl)cc3)c2)CC1 | -34
COc1ccccc1-c1nc(Cc2noc(-c3ccc(F)cc3)n2)c(C)o1 | 23

Compounds shown so far that contain sulfur (ten):
SMILES | Tgondii IFNg
CS(=O)(=O)N1CCCC12CCCN(C(=O)c1cnc[nH]1)C2 (stereo not drawn) | -9
COC(=O)C1SCCN1S(=O)(=O)c1ccc(-c2cc(C(F)(F)F)on2)s1 (stereo not drawn) | -52
CCCNC(=O)c1cc(-c2csc(C(C)C)n2)n2ccccc12 | -4
CCOc1cc(/C=C(/C#N)C(N)=O)cc(CSc2ccccc2)c1O | 24
COc1ccc(C(=O)Nc2nnc(C(c3ccccc3)c3ccccc3)s2)cn1 | 0
Cc1cccc(CC(=O)NCCc2csc(-c3ccc(F)cc3)n2)c1 | 60
CCN(Cc1ccccc1)C(=O)Cn1nc(C)c2sc(-c3ccccc3)nc2c1=O | -34
COC(=O)CSc1nc2ccccc2n1Cc1c(F)cccc1Cl | 6
CSc1nc(-c2cc(Cl)cc(Cl)c2)nn1C(=O)N(C)C | 24
CC1CCN(S(=O)(=O)c2ccc3c(ccc(=O)n3CC(=O)Nc3ccc(Cl)cc3)c2)CC1 | -34

Next part.
SMILES | Tgondii IFNg
c1cnn(CC2CN(Cc3cc4n(n3)CCNC4)CCCO2)c1 (stereo not drawn) | 0
CCN1CCNC(=O)C12CCN(Cc1nccs1)CC2 | 0
Cc1nc(C(C)NC(=O)c2[nH]c3c(C)ccc(C)c3c2C)n[nH]1 (stereo not drawn) | 2
C=CCN1CC(C(=O)NCc2ccc(S(=O)(=O)N(C)C)cc2)CC1=O (stereo not drawn) | 4
C=C1C2CC[C@@]3(C)[C@H](c4ccoc4)OC(=O)C[C@]13O[C@H]1CC(=O)C(C)(C)[C@H](C(O)C(=O)OC)[C@@]21C (stereo partly drawn) | -4
O=C(C[C@H]1C=C[C@@H](NC(=O)c2cnccn2)[C@@H](CO)O1)NCc1ccccc1F | -32
COC[C@@H]1CCC[C@@]12CN(C(=O)N1CCCC1)CCO2 | -18
COC(=O)C[C@@H]1CC[C@@H]2[C@H](COc3ccc(NC(=O)Nc4c(C)noc4C)cc3C(=O)N2C)O1 | 12
CC(C)n1cnc2c(N3CCOCC3)nc(C3CCN(Cc4cccnc4)CC3)cc21 | 1
Cc1[nH]cnc1CN1CCC(=O)NCC1C (stereo not drawn) | 5
COCCCN(Cc1ccc2c(c1)CC(C)O2)Cc1ccccn1 (stereo not drawn) | -5
Cc1ccc(NC(=O)C(=O)NCCc2csc(-c3cccc(F)c3)n2)cc1Cl | -8
COc1ncc(C(=O)Nc2ccc(N3CCCC3)c(F)c2)cn1 | 45
CCc1nc(CN2CCN3CCN(C)CC3C2)c(C)[nH]1 (stereo not drawn) | 9
Cn1nnc2c(NCCc3c[nH]c4ccccc34)ncnc21 | -12
Cc1cc(C(=O)N2CCCCCC2c2nn(C)cc2Cl)on1 (stereo not drawn) | 14
Cc1ccc(-c2nnc(-c3nc(NCCC4=CCCCC4)c4ccccc4n3)o2)cc1 | i
Cn1nc(CO)c2c1CCN(c1ncnc3c1CCNC3)C2 | 1
c1ccc(-c2ccc([C@H]3[C@H]4CNC[C@@H]3N4Cc3cc(-c4ccccc4)on3)cc2)cc1 | -46
COc1cc(N2CC[C@@H](N(C)C)[C@@H]2Cc2cnn(C)c2)ncn1 | -3
CC(=O)c1cc(C2CC(=O)Nc3c2c(C)nn3Cc2ccccc2)cs1 (stereo not drawn) | -24
CC(=O)NCCc1csc(-c2ccc(Cl)cc2)n1 | 50
Cc1ccccc1NC(=O)c1nc(Nc2ccccc2)c2ccccc2n1 | 52
CCOC(=O)CCCSc1nc(N)c2c(C)c(C)sc2n1 | -21
CN(Cc1nc2ccccc2s1)C(=O)c1cc(CN2CCOCC2)on1 | 0
COCCN(C)C(=O)c1ccc2nnc(C3CCN(Cc4ccccc4)C3)n2c1 (stereo not drawn) | -2
Cc1ccc(CC(=O)NC2CCC3(CCC(=O)N3)CC2)cc1 (stereo not drawn) | 37
CCCCCCOc1ccccc1C(N)=O | 10&14
COc1ccc(NC(=O)N2CCC3(CC2)CN(C(=O)CN2CCOCC2)[C@@H](CO)c2[nH]c4cc(OC)ccc4c23)cc1 | 368
CC(NC(=O)c1cc2n(n1)CCN(C)C2)c1ccccc1-n1cccn1 (stereo not drawn) | 1
CCc1c(Cl)c(O)c(Cl)c(O)c1C(=O)O[C@H]1[C@H](O)[C@H](OC)[C@H](OCC2=C/C=C/C[C@H](O)/C(C)=C\[C@H](CC)[C@H](O[C@@H]3OC(C)(C)[C@@H](OC(=O)C(C)C)[C@H](O)[C@H]3O)/C(C)=C\C(C)=C\C[C@H]([C@@H](C)O)OC2=O)O[C@@H]1C | -58
O=C(c1ccccn1)N1CC[C@@H]2C(=O)N(c3ccsc3)CCO[C@@H]2C1 | 5
CCc1nc(CN2CCCC(C(=O)Nc3ccccc3-c3ccc(OC)cc3)C2)c(C)[nH]1 (stereo not drawn) | -11
C[N+](C)(CCOc1ccccc1)Cc1ccccc1 | 85
C1COC(c2nnc3n2CCNCC3)C1 (stereo not drawn) | 6
CO[C@H]1CN(C)C(=O)c2cc(NC(C)=O)ccc2OC[C@@H](C)N(C(=O)Cc2ccccn2)C[C@H]1C | -2
C[C@H](CO)N1C[C@H](C)[C@H](CN(C)C(=O)Nc2ccccc2C(F)(F)F)OCc2cnnn2CCCC1=O | 5
CCCn1c(=O)cc(N2CCN(C(=O)CC)CC2)c2cc(C)ccc21 | -76*
COC(=O)c1c(NC(=O)Cn2nc(C(F)(F)F)c(Br)c2C)sc2c1CCCC2 | 6
COc1ccccc1NC(=O)N[C@H]1CC[C@H](CCNS(=O)(=O)c2ccc(Cl)cc2)O[C@@H]1CO | -22
Clc1cccc(Cl)c1SCc1ccc(-c2ncns2)cc1 | 1
CC(C)NC(=O)N(C)C[C@@H]1Oc2ccc(NC(=O)Cc3ccccc3)cc2CC(=O)N([C@@H](C)CO)C[C@H]1C | -33
COC1COC2(CCN(S(=O)(=O)c3cn(C)cn3)CC2)C1 (stereo not drawn) | -47
Cc1cc(O)c(C=O)c2c1C(=O)Oc1c(C)c(O)c3c(c1O2)C(O)OC3=O (stereo not drawn) | 19
O=C(NCC1CC1)C1CN(Cc2cccs2)CC12CCOCC2 (stereo not drawn) | 119

Arranged by SMILES length (descending): part of the list above
SMILES | Tgondii IFNg
CO[C@H]1CN(C)C(=O)c2cc(NC(C)=O)ccc2OC[C@@H](C)N(C(=O)Cc2ccccn2)C[C@H]1C | -2
COC1COC2(CCN(S(=O)(=O)c3cn(C)cn3)CC2)C1 (stereo not drawn) | -47
C1COC(c2nnc3n2CCNCC3)C1 (stereo not drawn) | 6

Continued:
SMILES | Tgondii IFNg
CCOCC(=O)N1CC[C@]2(CCC[C@@H](CNc3ccccn3)O2)C1 | 8
Cc1noc(C)c1NC(=O)Nc1cccc2c1O[C@@H](CN(C)Cc1ccc(C(=O)Nc3ccccc3N)cc1)[C@@H](C)CN([C@@H](C)CO)C2=O | 16
Cc1cccc(C)c1N1CCN(CC(O)COc2ccc3c4c(c(=O)oc3c2)CCC4)CC1 (stereo not drawn) | 46
COc1cccc(-c2nc(Cn3nnc(C(=O)Nc4ccc(C)c(F)c4)c3C)c(C)o2)c1OC | -68
CCOc1ccc(S(=O)(=O)N(CC)CC(=O)NCc2ccccn2)cc1C | 17
CC[C@H]1N(Cc2nccs2)CCC[C@]12CCC(=O)N2 | -28
CC1(C)CCC(C)(C)c2cc(C3(c4ccc(C(=O)O)cc4)OCCO3)ccc21 | 9
COc1cccc(Cc2nc(Cc3nc(-c4ccccc4)oc3C)no2)c1 | 15
COCCN1CCCc2sc(C(=O)N3CCC(N(C)C)CC3)nc21 | 122
CCCc1ccc(CN2CCn3nc(C(=O)N4CCN(C)CC4)cc3C2)o1 | -9
CN1C(=O)c2cc(NC(=O)c3ccc4c(c3)OCO4)ccc2OC[C@H]2O[C@@H](CC(=O)O)CC[C@H]21 | 12
C=CCOCC12CCCOC1CCN(C(=O)c1cccs1)C2 (stereo not drawn) | -4
Cn1cnc(S(=O)(=O)N[C@@H]2CC[C@H](CC(=O)NCC3CCCCC3)O[C@H]2CO)c1 | 58
COc1ccc2c3c([nH]c2c1)[C@@H](CO)N(Cc1cccc(F)c1)CC31CCN(C(C)=O)CC1 | 64
COCCCNC1=NCCNC12CCN(S(=O)(=O)c1ccc(C)c(C)c1)CC2 | -13
Cc1ccc(CN2CCC3(CC2)CC(c2cccnc2)C(=O)N3)o1 (stereo not drawn) | 0
O=S(=O)(Nc1nc(SCc2ccc(Cl)cc2)n[nH]1)c1ccccc1 | -61
CCOCC12CCCOC1CCN(S(=O)(=O)c1cn(C)cn1)C2 (stereo not drawn) | -57
Cn1cc(/C=C/C(=O)c2ccccc2)c2ccccc21 | 315
CC(=O)N[C@H]1CCN(C(=O)c2cccc(CC3CCNCC3)c2)C1 | -45
O=C(O)c1nccnc1C(=O)N1CCCN(c2c(Cl)cncc2Cl)CC1 | 78
COc1ccc(Cl)cc1NC(=O)COc1nc(C)nc2ccccc12 | -15
CO[C@@H]1CN(C)C(=O)c2cc(NC(=O)C3CC3)ccc2OC[C@H](C)N(Cc2cc(F)ccc2F)C[C@H]1C | -29
CN(C)CC(=O)N1[C@@H](CO)[C@@H](c2ccccc2)C12CN(C(=O)c1ccc(F)cc1)C2 | 20
CN(C)S(=O)(=O)CCCN1CCC2(CC1)c1ccccc1CC2O (stereo not drawn) | 11
CO[C@@H]1CO[C@@]2(CCCN(C(=O)C3CC=CC3)C2)C1 | 2
CN(C)[C@@H]1CCN(C(=O)C2CC=CC2)[C@H]1Cc1ccncc1 | 8
CCCCC(NC(=O)c1c(O)cccc1O)c1cccnc1 (stereo not drawn) | 1
COc1c(O[C@@H]2O[C@H](CO)[C@@H](O)[C@H](O)[C@H]2O)cc2c(c1OC)-c1ccc(SC)c(=O)cc1[C@@H](NC(C)=O)CC2 | 12
Cc1nc(-c2ccccc2)sc1CCNS(=O)(=O)c1ccc(F)c(C(F)(F)F)c1 | 60

Next section; the last 2 above are carried over.
SMILES | Tgondii IFNg
COc1c(O[C@@H]2O[C@H](CO)[C@@H](O)[C@H](O)[C@H]2O)cc2c(c1OC)-c1ccc(SC)c(=O)cc1[C@@H](NC(C)=O)CC2 | 12
Cc1nc(-c2ccccc2)sc1CCNS(=O)(=O)c1ccc(F)c(C(F)(F)F)c1 | 60
Cc1cccc(NC(=O)c2cncc(NS(=O)(=O)c3ccc(C)cc3C)c2)c1 | 18
Cc1occc1C(=O)N1CCn2cc(CNC(=O)c3cnn(C)c3)nc2C1 | 73
O=C(Nc1ccc2c(c1)OCO2)C1CCN(c2nc3ccccc3s2)CC1 | -58
O=C(C1CCOCC1)N1CC(=O)N2[C@H](CO)[C@H](c3ccc(/C=C/c4ccccc4)cc3)[C@@H]2C1 | 3
N#C[C@H]1[C@@H](c2ccc(C#Cc3cccc(F)c3)cc2)[C@@H](CO)N1C(=O)C1CCOCC1 | -42
O=C(CN1C(=O)c2ccccc2C1=O)N1CC=C(c2ccccc2)CC1 | -11

Screening results (PubChem BioAssay)
